High-throughput results deposited in PubChem by National Center for Advancing Translational Sciences (NCATS).
PMP22 txn prim – PMP22 gene transcription modulation; S16 Pmp22-F2sN Schwann cells (luciferase reporters placed in the Pmp22 gene), FLuc/NLuc coincidence luminescence, 24 h; Potency, µM (series often up to 57.5 µM), inactives show at the highest dose activity change, negative = inhibition, actives largely listed as inhibitors; 43,000 compounds, 2% hits; active = clear falling dose curves in both reporters; inconclusive = both reporters move, but less clearly or upward; inactive = either reporter flat; the % is the NLuc reporter signal; further: on the % scale 0 is the no-effect control and ±100 the full control effect; some results filed as inactive show a strong effect at the top dose
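Schwann cells carrying the coincidence reporter were exposed to library compounds for 24 h at 37C, then lysed and read for FLuc and, after quenching, NLuc luminescence on a CCD imager.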
HTT promoter inh – inhibits huntingtin promoter activity; HEK293 HTT promoter firefly luciferase reporter (activity 0% = vehicle and -100% = no light), 24 h; Potency, µM (series often up to 57.5 µM), for the others: top-dose activity change, negative = inhibition, hits mostly inhibitors; 48,000 compounds, 0.93% hits; active means well fitted inhibition curve with a large enough effect; inconclusive means small, poorly fitted or top-dose-only effect; inactive means no such curve, though single readings can be large or run the other way; further: nearly all actives have a fitted effect of over 50% in size
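HEK293 Fluc reporter, 2,500 cells/well, 24 h pre-culture; cpds up to 57.5 uM final, 24 h 37 degrees C; Dual-Glo, 10 min RT; normalized vehicle = 0%, zero RLU = -100%.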
Active calls of the source: *; ? = inconclusive; / = no result given; [ ] = dose if it differs, or a comment. Potency means the concentration at half of the fitted maximal effect. Not all compounds are listed, so the mix of outcomes need not match the whole.

Results follow in this order: PMP22 txn prim	HTT promoter inh
Cc1ccc(Cl)cc1NC(=O)N1CCN(C)c2ncccc21
 : ?	-4%
Cc1ccc2c(c1)NC(c1cccnc1)=NC(c1ccc(F)cc1)=N2
 : -13%	-9%
Cc1cccc(OCc2nc(CC(=O)Nc3ccc(C)cc3C)cs2)c1
 : 2%	?
COc1ccc(C(=O)Nc2ccc3c(c2)N(C2CCCC2)C(=O)c2ccccc2S3)cc1OC
 : -94%	-23%
Cc1ccccc1CNC(=O)c1ccc(-n2c(C)cc3c2CCCC3)cc1
 : ?	10%
CCN(CC)CCNC(=O)Cn1ncc2c([nH]c3ccccc32)c1=O
 : 10%	-8%
Cc1ccc(C)c(CSc2cn(CC(=O)N3CCCC3)c3ccccc23)c1
 : -80%	-4%
Cn1cc(S(=O)(=O)N2CCCCC2)cc1C(=O)N1CCN(c2ccccc2F)CC1
 : -34%	-16%
Cc1ccc(C)c(N2CCN(CCCNC(=O)C3COc4ccccc4C3)CC2)c1 (configuration not stated)
 : ?	?
CSc1cccc(NS(=O)(=O)c2ccc3[nH]cc(C(=O)N4CCCC4)c(=O)c3c2)c1
 : -11%	12%
COc1ccccc1CNC(=O)CSc1cc(C)[nH]c(=O)n1
 : 1%	-5%
CN1CCN(C(CNC(=O)c2ccccc2)c2ccc3c(c2)OCO3)CC1 (configuration not stated)
 : 1%	-11%
CCn1c2ccccc2c2cc(CN3CCN(Cc4cccc(Cl)c4)CC3)ccc21
 : ?	-23%
CCOc1ccccc1NC(=O)C(=O)Nc1ccc2nc3n(c(=O)c2c1)CCCCC3
 : 10%	-24%
CCCCN(CC)C(=O)CSc1nc2n[nH]c(C)c2c(=N)n1-c1cccc(C)c1
 : ?	?
COc1ccccc1C(=O)Nc1cccc(C(=O)OCc2cc(=O)n3cc(C)sc3n2)c1
 : 1%	-17%
CCc1ccc(CNC(=O)CSc2cc(=O)n(C)c3ccc(Cl)cc23)cc1
 : -24%	-17%
O=C(c1ccc2c(c1)N(Cc1ccc(Cl)cc1)C(=O)c1ccccc1S2(=O)=O)N1CCCCC1
 : ?	-28%
Cc1nn(-c2ccccc2)c2c1N(CCCC(=O)NCc1ccccc1)C(=O)CS2
 : ?	?
Cc1ccc(-c2nc(C)c(CCNS(=O)(=O)c3ccc(F)c(C(F)(F)F)c3)s2)cc1
 : -37%	-15%
CCC(CC)C(=O)N1CCc2cc(OC)c(OC)cc2C1COc1ccc(C(=O)OC)cc1 (configuration not stated)
 : -6%	-29%
O=S(=O)(c1ccc(Br)cc1)c1nnn2c1nc(NCc1ccc3c(c1)OCO3)c1sccc12
 : ?	2%
CCOc1cc(C(=O)NCc2ccc3c(c2)CCN3C(=O)CC)cc(OCC)c1OCC
 : 31%	-5%
CCN(c1ccccc1)S(=O)(=O)c1c(-c2ccc(C)cc2)csc1C(=O)OC
 : ?	?
Cc1nn(CCC(=O)NCc2ccc(Cl)cc2)c(=O)c2nn(-c3ccccc3)c(C)c12
 : -8%	-19%
O=C(Cn1cc(S(=O)(=O)N2CCCC2)c(S(=O)(=O)N2CCCC2)c1)Nc1ccccc1
 : 3%	-6%
O=C(Nc1cc(Cl)ccc1Cl)C1(c2cccs2)CCOCC1
 : -19%	-12%
CC(NC(=O)C1CCN(S(=O)(=O)c2ccccc2)CC1)c1ccccc1 (configuration not stated)
 : 5%	-23%
CCOc1ccc(C2C(C(=O)Nc3ccc(OC)cc3)=C(C)Nc3nc(SCc4ccc(Cl)cc4)nn32)cc1 (configuration not stated)
 : -8%	-8%
CC(C)N(Cc1nc(-c2ccc(Cl)cc2)no1)C(=O)c1ccc(C(C)(C)C)cc1
 : ?	-6%
O=C(CSc1nc2c(c(=O)[nH]1)CN(Cc1ccc(F)cc1)CC2)Nc1ccccc1Cl
 : ?	-21%
O=c1c(=O)n(Cc2ccc(Cl)cc2)ccn1Cc1ccc(F)cc1
 : 8%	1%
COC(=O)c1cccc(CN2C(=O)SC(Nc3ccc(C)cc3)C2=O)c1 (configuration not stated)
 : -19%	-11%
CCc1ccccc1NC(=O)Nc1c[nH]c(=O)[nH]c1=O
 : 0%	9%
CCC(=O)N1CCc2cc(S(=O)(=O)NC(Cc3ccccc3)C(=O)O)ccc21 (configuration not stated)
 : 4%	0%
COc1ccc(-c2cc3nc(-c4ccc(Br)cc4)cc(C(F)(F)F)n3n2)cc1
 : 9%	-18%
CC(CNC(=O)c1ccc(CSc2nc3ccncc3n2Cc2ccccc2)cc1)c1ccccc1 (configuration not stated)
 : ?	?
O=c1oc2ccc3ccccc3c2cc1-c1nnc(Nc2cccc(C(F)(F)F)c2)s1
 : 7%	18%
Cc1noc(Cn2c(=O)c3cc4c(cc3n(CC(=O)Nc3cccc(Cl)c3)c2=O)OCO4)n1
 : 0%	-21%
CN(C)c1ccc(Nc2ncnc3c2c(-c2ccccc2)cn3-c2cccc(Cl)c2)cc1
 : -13%	-37%
COc1ccc(-c2onc(C)c2C)cc1S(=O)(=O)Nc1ccc(OC(F)(F)F)cc1
 : -2%	-27%
Cc1ccc(NC(=O)CN2C(=O)CCn3nc(-c4cccn4C)cc32)c(Cl)c1
 : -13%	-20%
CC(C)c1ccc(NC(=O)Cn2nnc(C(=O)NCc3ccc(Cl)cc3)c2N)cc1
 : -8%	-1%
O=C(COCc1cc(-c2ccc3c(c2)OCO3)on1)Nc1cc(C(F)(F)F)ccc1Cl
 : -8%	-2%
COc1ccc(-c2cc(C(C)=O)c(C)n2CCC(=O)Nc2cc(Cl)ccc2C)cc1
 : -3%	-42%
CC1CCc2onc(C(=O)N3CCN(c4cccc(C(F)(F)F)c4)CC3)c2C1 (configuration not stated)
 : -28%	-28%
O=C(Nc1ccc(F)c(F)c1)c1ccc(=O)n(Cc2ccc(F)cc2)c1
 : ?	-26%
CCc1ccccc1NC(=O)c1oc(=O)c2ccccc2c1-c1ccccc1
 : -8%	-26%
O=C(c1ccc2c(Cl)c3c(nc2c1)CCCC3)N1CCN(c2ccccc2)CC1
 : ?	0%
O=C(Nc1ccc(Cl)c(C(F)(F)F)c1)c1cc2nc(-c3ccc4c(c3)OCO4)cc(C(F)(F)F)n2n1
 : -20%	-12%[11.5 µM]
CSc1ccccc1NC(=O)CCS(=O)(=O)c1nc(-c2ccc3c(c2)OCO3)cc(C(F)(F)F)n1
 : ?	10%
Cc1ccc2oc(C(=O)Nc3ccc(S(=O)(=O)Nc4ncccn4)cc3)cc(=O)c2c1
 : -25%	35%[activator][11.5 µM]
CSc1ccc(CCNC(=O)c2csc3c2CCCCC3)cc1
 : -23%	-24%
COc1ccc(CNC(=O)c2cccc(-n3cnc4cccnc43)c2C)cc1
 : -20%	-18%
Cc1cc(N2CCN(c3ccc(F)cc3)CC2)n2cnnc2n1
 : -18%	-10%
Cc1ccc(-c2noc(COc3ccc(Br)c(C)c3)n2)cc1
 : 2%	-19%
CCCCCN=C(N)N/N=C/c1c[nH]c2ccc(OC)cc12
 : /	?
Cc1cccc(NC(=O)CSc2nnc3[nH]c(=O)cc(C)n23)c1C
 : 0%	-4%
COc1ccc(Br)cc1CNC(=O)C(C)n1nc(C)n2c(cc3occc32)c1=O (configuration not stated)
 : -15%	-23%
COc1cc(Cn2c(=O)sc3ccccc32)ccc1OC(C)C
 : ?	?

For convenience, part of the list above.
Results follow in this order: PMP22 txn prim	HTT promoter inh
O=C(CSc1nc2c(c(=O)[nH]1)CN(Cc1ccc(F)cc1)CC2)Nc1ccccc1Cl
 : ?	-21%
O=c1c(=O)n(Cc2ccc(Cl)cc2)ccn1Cc1ccc(F)cc1
 : 8%	1%
COC(=O)c1cccc(CN2C(=O)SC(Nc3ccc(C)cc3)C2=O)c1 (configuration not stated)
 : -19%	-11%

Another view of part of the listing above:
Molecule: CN(C)c1ccc(Nc2ncnc3c2c(-c2ccccc2)cn3-c2cccc(Cl)c2)cc1
  PMP22 txn prim: -13%; HTT promoter inh: -37%

Molecule: COc1ccc(-c2onc(C)c2C)cc1S(=O)(=O)Nc1ccc(OC(F)(F)F)cc1
  PMP22 txn prim: -2%; HTT promoter inh: -27%

A few values from above:
HTT promoter inh with Cc1ccc(-c2noc(COc3ccc(Br)c(C)c3)n2)cc1 is entered as -19%
HTT promoter inh with COc1ccc(Br)cc1CNC(=O)C(C)n1nc(C)n2c(cc3occc32)c1=O (configuration not stated) is entered as -23%
HTT promoter inh with O=C(c1ccc2c(Cl)c3c(nc2c1)CCCC3)N1CCN(c2ccccc2)CC1 is entered as 0%
PMP22 txn prim with Cc1noc(Cn2c(=O)c3cc4c(cc3n(CC(=O)Nc3cccc(Cl)c3)c2=O)OCO4)n1 is entered as 0%
HTT promoter inh with COC(=O)c1cccc(CN2C(=O)SC(Nc3ccc(C)cc3)C2=O)c1 (configuration not stated) is entered as -11%
PMP22 txn prim with COc1ccc(-c2onc(C)c2C)cc1S(=O)(=O)Nc1ccc(OC(F)(F)F)cc1 is entered as -2%

(further entries)
Results follow in this order: PMP22 txn prim	HTT promoter inh
Cc1cccc(C(=O)O)c1O
 : /	11%
CO[C@@H]1[C@H](N(C)C(=O)c2ccccc2)C[C@H]2O[C@]1(C)n1c3ccccc3c3c4c(c5c6ccccc6n2c5c31)C(=O)NC4
 : /	-29%
CCOC(=O)c1c(C)[nH]c(C)c1S(=O)(=O)N1CCCC(C(=O)NCc2ccc(C)cc2)C1 (configuration not stated)
 : -14%	-9%
C[N+](C)(C)CCCCCCCCCC[N+](C)(C)C
 : /	2%
CCOc1ccc(CNC(=O)COc2cc(=O)n(C)c3ccccc23)cc1
 : 15%	11%
Cc1cc(OCC(=O)Nc2nc3c(s2)CCCC3)cc(C)c1Cl
 : -26%	1%
CCN(Cc1ccccc1)S(=O)(=O)c1ccc(-c2coc(C)n2)cc1
 : ?	-25%
COC(=O)CCNC(=O)N1CCN(c2nnc(C)c3c(C)n(-c4ccccc4)nc23)CC1
 : 5%	2%
CCN(CC)CCCNC(=O)CCc1c(C)nc2c(c1C)c(=O)n(C)c(=O)n2C
 : ?	-9%
Cc1cc(Br)ccc1NC(=O)c1sc2nc3n(c(=O)c2c1C)CCCC3
 : -3%	22%
COc1ccc(Cl)cc1NC(=O)Cn1c(=O)n2nc(-c3ccccc3)nc2c2ccccc21
 : -21%	4%
CCOc1ccc(NC(=O)c2cc3cc4cc(OC)ccc4nc3s2)cc1
 : ?	-2%
CCn1nnc2cc(C(=O)Nc3ccc(OC)cc3)ccc21
 : ?	72%[activator]
CN(C)c1ccc(-c2nc(-c3ccco3)no2)cc1[N+](=O)[O-]
 : ?	-18%
O=C(Cn1cc(S(=O)(=O)Cc2cccc(Cl)c2)c2ccccc21)Nc1ccc(F)c(Cl)c1
 : ?	?
Cc1ccc(NC(=O)CCN2C(=O)c3ccccc3Sc3ncccc32)c(Cl)c1
 : -58%	-21%
Cc1ccc(C)c(N2C(=O)N(C)c3ccccc3S2(=O)=O)c1
 : -12%	-27%
CC(=O)N1c2ccccc2CC1C(=O)NCc1cccc(Cl)c1 (configuration not stated)
 : -3%	8%
O=C(O)c1ccccc1NCCc1ccccc1
 : /	19%
O=C(COc1ccc(F)cc1)Nc1ccc2nc(SCC(=O)N3CCc4ccccc43)sc2c1
 : 3µM*	-10%
COc1ccc(-c2nc3cc(C(C)C)ccc3o2)cc1NC(=O)COc1ccc(C)cc1C
 : -8%	2%
Cc1csc2nc(COC(=O)c3cccc(NC(=O)COc4ccc(Cl)cc4)c3)cc(=O)n12
 : 4%	-14%
O=C(CCBr)N1CCN(C(=O)CCBr)CC1
 : /	7%
CC1CCC(NC(=O)C2(C)Cc3ccccc3C(=O)N2Cc2ccc(F)cc2)CC1 (configuration not stated)
 : -2%	-26%
COc1ccc(Cn2c(SCc3ccc(C(=O)NC(C)C)cc3)nc3cccnc32)cc1
 : -17%	-19%
